# NS1 inh = blocks influenza NS1 protein function. actives 0.4% (n = 270,000). AID 2326. S. cerevisiae slowed by influenza A NS1, growth recovery by OD600. Potency, µM (series often up to 46.1 µM), inactives show at the top dose activity, positive = more growth; active means well fitted rising curve with a large enough effect; inconclusive means small, poorly fitted or top-dose-only effect; inactive means no such curve, though single readings can be large or run the other way; also: nearly all actives have a fitted effect of over 50% in size
#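 A cell-based growth assay was used: compounds that relieve NS1-induced slow growth of budding yeast raise OD600. Assay medium was yeast nitrogen base with ammonium sulphate and -URA supplement, pH 6.0, with 2% galactose.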
# Cruzain inh Det = blocks cruzain activity in presence of Triton detergent. actives 0.43% (n = 200,000). Potency, µM, inactives show max response, negative = inhibition, usual class: inhibitors. purified cruzain, Z-FR-AMC fluorescence, 0.01% Triton. P25779;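 also: plate controls were neutral wells for no effect and buffer without enzyme for full effect; nearly all actives have a fitted effect of over 40% in size; top concentration of the series not given in the record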
# Target sequence (P25779 123-467 limits assumed): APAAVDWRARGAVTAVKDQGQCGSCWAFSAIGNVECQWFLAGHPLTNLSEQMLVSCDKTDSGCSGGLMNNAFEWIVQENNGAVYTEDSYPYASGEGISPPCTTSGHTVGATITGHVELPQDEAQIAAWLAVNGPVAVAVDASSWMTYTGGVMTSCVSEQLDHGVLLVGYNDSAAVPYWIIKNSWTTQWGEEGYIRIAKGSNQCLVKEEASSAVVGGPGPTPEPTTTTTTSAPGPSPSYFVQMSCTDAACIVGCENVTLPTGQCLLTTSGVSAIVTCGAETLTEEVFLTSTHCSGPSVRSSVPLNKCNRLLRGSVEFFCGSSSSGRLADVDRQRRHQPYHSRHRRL
#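 15 min RT preincubation of 1.5 nM cruzain with compound, then 2 uM Z-FR-AMC added; kinetic AMC fluorescence, 60 s delta. Triton X-100 0.01%, pH 5.5.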
# MARV entry inh = blocks Marburg virus binding to or entry into cells; Marburg virus pseudotyped entry inhibition, cell reporter; control for the full effect not named in the record; about a third of the inactives were read at about 46 µM; Potency, µM (titrated, usually from 37.8 µM), inactives show top-dose activity change, negative = inhibition, usual class: inhibitors; actives 1.8% (n = 300,000); AID 540276; active = well fitted inhibition curve with a large enough effect; inconclusive = small, poorly fitted or top-dose-only effect, or effect the other way; inactive = flat fitted curve, though single readings scatter; tested in HEK293 cells; about a fifth of its hits are not listed in these tables; also: % is scaled to controls: 0 for no effect and ±100 for the full control effect; luciferase read-out
# LASV entry inh = inhibitors of Lassa virus binding or cell entry | Lassa virus pseudotype entry inhibition, cell reporter; control for the full effect not named in the record | actives 1.2% (n = 300,000) | Potency, µM (top dose mostly 37.9 µM), for inactives: top-dose activity change, negative = inhibition, hits mostly inhibitors; active means well fitted inhibition curve with a large enough effect; inconclusive means small, poorly fitted or top-dose-only effect, or effect the other way; inactive means flat fitted curve, though single readings scatter; tested in HEK293 cells; also: % is scaled to controls: 0 for no effect and ±100 for the full control effect; nearly all actives have a fitted effect of over 50% in size; luciferase read-out
# RE007 growth inh = less growth of the S. pombe RE007 Vpr strain. S. pombe RE007 Vpr strain, BacTiter-Glo ATP luminescence, 24 h; control for the full effect not named in the record. Potency, µM (highest dose often 92.2 µM), without a hit: top-dose activity change, negative = less growth. actives 0.21% (n = 360,000). AID 651644; active = well fitted falling curve with a large enough effect; inconclusive = small, poorly fitted or top-dose-only effect; inactive = no such curve, though single readings can be large or run the other way;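 also: % is scaled to controls: 0 for no effect and ±100 for the full control effect; nearly all actives have a fitted effect of over 50% in size; the assay follows cell death caused by Vpr and the record does not say whether a fall means rescue or toxicity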
#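 Fission yeast RE007 carrying one integrated HIV-1 vpr copy, seeded at OD 0.01 in PMG+AL medium with 23 nL pinned compound. Grown 24 h at 30 degrees; viability read by BacTiter-Glo luminescence after 5 min.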
# Cruzain noTriton = cruzain (T. cruzi) inhibition without detergent; P25779; purified cruzain, Z-FR-AMC fluorescence, no detergent; Potency, µM, for inactives: max response, negative = inhibition, usual class: inhibitors; actives 2.3% (n = 200,000); AID 1476;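 also: plate controls were enzyme without inhibitor for no effect and buffer without enzyme for full effect; nearly all actives have a fitted effect of over 40% in size; top concentration of the series not given in the record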
#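 Detergent-free condition (0.00005% Triton X-100) in acetate buffer pH 5.5 with DTT. 1.5 nM enzyme and compound were pre-mixed 15 min, then 2 uM Z-FR-AMC substrate added; reaction progress from fluorescence change between first and third reads (60 s).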
# SARS PLP yeast = SARS-CoV PLP inhibition in yeast; S. cerevisiae expressing SARS-CoV PLpro, growth rescue; control for the full effect not named in the record; Potency, µM (series often up to 32.9 µM), for inactives: at the top dose activity, positive = growth rescue; actives 0.19% (n = 330,000); active means well fitted rising curve with a large enough effect; inconclusive means small, poorly fitted or top-dose-only effect; inactive means no such curve, though single readings can be large or run the other way; also: 0% is about no effect; nearly all actives have a fitted effect of over 55% in size; growth read by luminescence after 48 h
# 2A StopGo = FMDV 2A StopGo reporter, luciferase signal; actives 1.2% (n = 410,000); Potency, µM (titrated, usually from 57.9 µM), for inactives: at the top dose signal change, negative = less light; human cells with a luciferase reporter of 2A StopGo recoding; control for the full effect not named in the record; active = well fitted falling curve with a large enough effect; inconclusive = small, poorly fitted or top-dose-only effect; inactive = no such curve, though single readings can be large or run the other way; tested in HEK293T cells; also: % is scaled to controls: 0 for no effect and ±100 for the full control effect; nearly all actives have a fitted effect of over 45% in size; luciferase light after 4 h
# Active calls of the source: *; ? = inconclusive; . = not tested or not shown; & = joins results of further samples; [ ] = dose if it differs, or a comment. Unless noted, calls follow the shape of the dose curve; as a rule, active = well fitted curve in the direction sought with a large enough effect; inconclusive = small, poorly fitted or top-dose-only effect, or another doubt; inactive = no such curve, though single readings can be large; an effect the other way counts as inactive or inconclusive. Potency is read from the fitted curve at half-maximal effect.
# Letters: A = NS1 inh; B = Cruzain inh Det; C = MARV entry inh; D = LASV entry inh; E = RE007 growth inh; F = Cruzain noTriton; G = SARS PLP yeast; H = 2A StopGo
canonical_smiles: Cc1ccc(Cl)cc1Nc1nn2c(=O)c3ccc(C(=O)N4CCCC(C)C4)cc3nc2s1 (stereo not given)
  A: . | B: 2.6% | C: . | D: 13%[46.1 µM] | E: . | F: -1% | G: . | H: -4%
canonical_smiles: CSc1nc(N2CCN(C)CC2)c2ccccc2n1
  A: 2% | B: . | C: 4%[46.1 µM] | D: 23% | E: -29% | F: . | G: 0% | H: -13%
canonical_smiles: COc1cccc(C2N(c3ccccc3)CCN2c2ccccc2)c1OC
  A: -3% | B: . | C: 25%[46.1 µM] | D: 17% | E: -1% | F: . | G: 0% | H: -7%
canonical_smiles: CCCCOC(=O)C(C)Sc1n[nH]c(=O)[nH]c1=O (stereo not given)
  A: . | B: . | C: -4% | D: -2% | E: -10% | F: . | G: -4% | H: -10%
canonical_smiles: CC(NC(=O)COC(=O)c1ccc([N+](=O)[O-])s1)c1ccccc1 (stereo not given)
  A: -23% | B: -3.0% | C: 0% | D: 11% | E: 9% | F: 1% | G: -84% | H: -14%
canonical_smiles: CCC(OC(=O)c1cccs1)C(=O)NCc1ccc2c(c1)OCO2 (stereo not given)
  A: 6% | B: 1.6% | C: 4% | D: 2% | E: -2% | F: 2% | G: 2% | H: 6%
canonical_smiles: COc1cc(C2C(C(=O)Nc3ccccc3)=C(C)Nc3nnnn32)cc(OC)c1OC (stereo not given)
  A: . | B: -2.8% | C: 22%[46.1 µM] | D: -1%[46.1 µM] | E: . | F: -4% | G: . | H: 6%
canonical_smiles: CCOC(=O)N1CCC(NC(=O)C2CCCN(Cc3nc(-c4ccc(CC)cc4)oc3C)C2)CC1 (stereo not given)
  A: 16% | B: . | C: ? | D: ? | E: -14% | F: . | G: 5% | H: ?
canonical_smiles: O=S(Cc1ccc(Cl)cc1)CC(O)COCc1ccc(Cl)cc1 (stereo not given)
  A: -56% | B: 1.0% | C: -6% | D: 27% | E: -3% | F: 18% | G: 1% | H: -12%
canonical_smiles: Cc1nn(Cc2ccccc2)c(C)c1C(=O)O
  A: 0% | B: . | C: 0%[46.1 µM] | D: -7%[46.1 µM] | E: 9% | F: . | G: 0% | H: -8%
canonical_smiles: O=C1CC(N2CCN(c3ccc(F)cc3)CC2)C(=O)N1c1ccc(F)cc1 (stereo not given)
  A: 8% | B: . | C: . | D: . | E: -2% | F: . | G: -13% | H: -21%
canonical_smiles: COc1ccc(Cc2noc(-c3ccc([N+](=O)[O-])cc3)n2)cc1OC
  A: -10% | B: . | C: . | D: . | E: -11% | F: . | G: 4% | H: -23%
canonical_smiles: COc1ccc(C(C)=O)c(Oc2cc(NN3CCCCC3)c([N+](=O)[O-])cc2[N+](=O)[O-])c1
  A: -4% | B: . | C: . | D: . | E: 1% | F: . | G: 1% | H: -14%
canonical_smiles: C#CCOCCOCCOCCNc1nc(N2CCN(C(=O)C([C@@H](C)CC)n3cc(C(N)Cc4ccc(O)cc4)nn3)CC2)nc(N2CCN(C(=O)[C@H](CCC(=O)O)n3cc(C(N)CO)nn3)CC2)n1 (stereo not given in full)
  A: 2% | B: . | C: . | D: . | E: 10% | F: . | G: -1% | H: -12%
canonical_smiles: OCCCc1nc2n(n1)C(c1cccs1)C=C(c1ccc(Br)cc1)N2 (stereo not given)
  A: 2% | B: -7.0% | C: 6% | D: . | E: . | F: ? | G: -18% | H: .
canonical_smiles: Cc1nn(CCCC(=O)Nc2cnn(Cc3ccc(F)cc3)c2)c(C)c1[N+](=O)[O-]
  A: 1% | B: . | C: . | D: . | E: -2% | F: . | G: 1% | H: -17%
canonical_smiles: CCOc1ccc(NC(=O)C2CCCN2S(=O)(=O)c2ccc3c(c2)C(C)(C)C(=O)N3C)cc1 (stereo not given)
  A: -17% | B: . | C: . | D: . | E: -16% | F: . | G: -7% | H: ?
canonical_smiles: COc1ccc(S(=O)(=O)NNC(=O)C23CC4CC(CC(C4)C2)C3)cc1[N+](=O)[O-]
  A: . | B: . | C: 3% | D: -3% | E: -13% | F: . | G: -2% | H: -9%
canonical_smiles: Cc1nc(N2CCN(Cc3ccc4c(c3)OCO4)CC2)c2cc(-c3ccccc3)sc2n1
  A: . | B: . | C: 7.9µM* | D: -10%[46.1 µM] | E: -16% | F: . | G: -5% | H: -12%
canonical_smiles: O=C1N(c2ccccc2)C[C@@H]2C[C@@H](c3cccc4c3OCO4)N3CCC[C@@]123
  A: 1% | B: . | C: -9%[46.1 µM] | D: -6%[46.1 µM] | E: -5% | F: . | G: 0% | H: -6%
canonical_smiles: CN(CC(=O)Nc1ccc(F)cc1)C(=O)C1CC(=O)N(Cc2ccccc2)C1 (stereo not given)
  A: 0% | B: . | C: 3% | D: 3% | E: -7% | F: . | G: 9% | H: -15%
canonical_smiles: COc1ccccc1CCn1c(N)c(C#N)c2nc3ccccc3nc21
  A: 12% | B: -26% | C: -11% | D: -1% | E: -3% | F: ? | G: -9% | H: 0%
canonical_smiles: CC1CCN(CCCCOc2ccc(C(C)(C)C)cc2)CC1
  A: -6% | B: . | C: . | D: . | E: 9% | F: . | G: -3% | H: ?
canonical_smiles: Cn1cnc(S(=O)(=O)NCc2ccccc2)c1
  A: -1% | B: -0.8% | C: -5% | D: 7% | E: -25% | F: 5% | G: ? | H: -3%
canonical_smiles: COC(=O)c1sc(N2C(=O)C(=O)/C(=C(/O)c3ccc(C)cc3)C2c2ccco2)nc1C (stereo not given)
  A: 2% | B: . | C: -7%[46.1 µM] | D: 9% | E: -5% | F: . | G: 9% | H: 0%

# Single values from the entries so far:
# Under SARS PLP yeast, COc1ccccc1CCn1c(N)c(C#N)c2nc3ccccc3nc21 shows -9%
# Under NS1 inh, COc1ccc(C(C)=O)c(Oc2cc(NN3CCCCC3)c([N+](=O)[O-])cc2[N+](=O)[O-])c1 shows -4%

# Other structures
# Letters: A = NS1 inh; B = Cruzain inh Det; C = MARV entry inh; D = LASV entry inh; E = RE007 growth inh; F = Cruzain noTriton; G = SARS PLP yeast; H = 2A StopGo
canonical_smiles: CC(C)[C@H](NC(=O)OC(C)(C)C)c1nnc(SCC(=O)Nc2ccc(Br)cc2)o1
  A: -57% | B: 0.1% | C: 9%&9% | D: ? | E: -1% | F: -1% | G: -7% | H: -24%
canonical_smiles: NS(=O)(=O)c1ccc(NN=C2CCCCC2)c([N+](=O)[O-])c1
  A: 5% | B: -4.4% | C: 7% | D: 4% | E: -3% | F: -8% | G: 18% | H: -18%
canonical_smiles: Cc1ccc(S(=O)(=O)CCC(=O)NCCc2ccccc2)cc1
  A: 0% | B: . | C: . | D: . | E: 14% | F: . | G: -2% | H: 5%
canonical_smiles: O=C(CN1CCN(S(=O)(=O)c2ccc(Cl)c(Cl)c2)CC1)N1CCCC1
  A: . | B: . | C: -9% | D: 2% | E: 18% | F: . | G: 2% | H: -33%
canonical_smiles: CCOc1cc(N2CCOCC2)c(OCC)cc1NC(=O)COC(=O)c1ccccc1C
  A: 28% | B: -6.1% | C: ? | D: ? | E: -1% | F: ? | G: 27% | H: ?
canonical_smiles: COc1ccc(C)cc1NC(=O)CN1CCN(C/C=C/c2ccccc2)CC1
  A: -4% | B: 3.5% | C: -15% | D: 10% | E: 20% | F: -1% | G: -20% | H: -28%

# Part of the list above in order of length of the SMILES, largest number first:
# Letters: A = NS1 inh; B = Cruzain inh Det; C = MARV entry inh; D = LASV entry inh; E = RE007 growth inh; F = Cruzain noTriton; G = SARS PLP yeast; H = 2A StopGo
canonical_smiles: CCOc1ccc(NC(=O)C2CCCN2S(=O)(=O)c2ccc3c(c2)C(C)(C)C(=O)N3C)cc1 (stereo not given)
  A: -17% | B: . | C: . | D: . | E: -16% | F: . | G: -7% | H: ?
canonical_smiles: COc1ccc(S(=O)(=O)NNC(=O)C23CC4CC(CC(C4)C2)C3)cc1[N+](=O)[O-]
  A: . | B: . | C: 3% | D: -3% | E: -13% | F: . | G: -2% | H: -9%
canonical_smiles: Cc1nn(CCCC(=O)Nc2cnn(Cc3ccc(F)cc3)c2)c(C)c1[N+](=O)[O-]
  A: 1% | B: . | C: . | D: . | E: -2% | F: . | G: 1% | H: -17%
canonical_smiles: CCOc1cc(N2CCOCC2)c(OCC)cc1NC(=O)COC(=O)c1ccccc1C
  A: 28% | B: -6.1% | C: ? | D: ? | E: -1% | F: ? | G: 27% | H: ?
canonical_smiles: COc1ccc(Cc2noc(-c3ccc([N+](=O)[O-])cc3)n2)cc1OC
  A: -10% | B: . | C: . | D: . | E: -11% | F: . | G: 4% | H: -23%
canonical_smiles: OCCCc1nc2n(n1)C(c1cccs1)C=C(c1ccc(Br)cc1)N2 (stereo not given)
  A: 2% | B: -7.0% | C: 6% | D: . | E: . | F: ? | G: -18% | H: .
canonical_smiles: COc1cccc(C2N(c3ccccc3)CCN2c2ccccc2)c1OC
  A: -3% | B: . | C: 25%[46.1 µM] | D: 17% | E: -1% | F: . | G: 0% | H: -7%
canonical_smiles: Cc1ccc(S(=O)(=O)CCC(=O)NCCc2ccccc2)cc1
  A: 0% | B: . | C: . | D: . | E: 14% | F: . | G: -2% | H: 5%
canonical_smiles: CC1CCN(CCCCOc2ccc(C(C)(C)C)cc2)CC1
  A: -6% | B: . | C: . | D: . | E: 9% | F: . | G: -3% | H: ?
canonical_smiles: CSc1nc(N2CCN(C)CC2)c2ccccc2n1
  A: 2% | B: . | C: 4%[46.1 µM] | D: 23% | E: -29% | F: . | G: 0% | H: -13%

# Source: PubChem BioAssay (National Center for Advancing Translational Sciences (NCATS))
